Source: PubChem
LANA-H2B inh = blockers of LANA interaction with H2A/H2B – biochemical, FP readout, HTS, primary screen | actives 0.6% (n = 320,000) | inhibition, % (no concentration beside the values) | cell-free LANA-H2A/H2B peptide, fluorescence polarization; in the data active means inhibition mostly above about 10%, no sharp cut-off; inactive means mostly below about 6.7%;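 further: stock transfer was 7.5 nL into about 10 µL; 0% = median of vehicle wells and 100% = median of positive control wells; one replicate is shown; the record names a cut of 25% in any replicate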
Calb FLC = C. albicans growth inhibition with fluconazole, primary screen, CaCi-2 strain, Alamar Blue fluorescence. C. albicans CaCi-2 (fluconazole-resistant clinical isolate) + fluconazole, 48 h. growth inhibition, % (concentration not given with the values). actives 0.57% (n = 300,000). AID 1979, 2009;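 active means most replicates above 75%; inconclusive means exactly half above 75%; inactive means most below 75%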;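 further: all wells also contain fluconazole at 8 µg/ml as a sub-toxic cotreatment; 0% = median of DMSO wells and 100% = median of geldanamycin control wells; wells of about 8 µL received 7.5 nL stock; the first replicate is given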
HNF4A DNA FP = change in binding of human HNF4A to DNA, primary screen, biochemical, fluorescence polarization, FITC-DNA; activity change, % at 10 µM; 1 h; actives 0.3% (n = 360,000); Hepatocyte nuclear factor 4-alpha (Homo sapiens), P41235; AID 1224865, 2016; in the data active means activity change above about 30%, passing the limit was not always enough;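 further: controls were the assay level and a saturating level of protein; the project sought stronger binding though the title names inhibitors; some compounds called inactive have numbers as strong as hits; positive values seem to mean higher polarization but the record does not say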
Target sequence (P41235 whole entry, looked up): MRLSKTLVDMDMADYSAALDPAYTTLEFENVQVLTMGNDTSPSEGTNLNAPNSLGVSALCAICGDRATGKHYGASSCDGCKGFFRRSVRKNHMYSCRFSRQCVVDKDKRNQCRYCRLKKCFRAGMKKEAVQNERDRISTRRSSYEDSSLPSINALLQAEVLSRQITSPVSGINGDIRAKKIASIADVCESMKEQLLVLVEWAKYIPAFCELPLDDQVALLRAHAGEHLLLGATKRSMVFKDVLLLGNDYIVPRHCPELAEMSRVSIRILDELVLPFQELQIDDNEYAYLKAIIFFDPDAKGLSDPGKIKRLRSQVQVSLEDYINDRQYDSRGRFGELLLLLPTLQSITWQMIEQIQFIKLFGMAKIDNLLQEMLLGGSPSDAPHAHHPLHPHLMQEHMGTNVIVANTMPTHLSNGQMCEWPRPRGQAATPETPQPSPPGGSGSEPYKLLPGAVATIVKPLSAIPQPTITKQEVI
ALR H2O2 inh = inhibitors of human ALR sulfhydryl oxidase, primary screen, biochemical, H2O2 detection, HRP-luminol luminescence, single point | FAD-linked sulfhydryl oxidase ALR (Homo sapiens), P55789 | purified ALR, DTT oxidation | inhibition, % (test concentration not listed) | actives 3.8% (n = 290,000);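 active means mean and each replicate at 75% or more; inconclusive means only one of the two met; inactive means neither met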;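 further: stock transfer was 7.5 nL into about 7.5 µL; 0% = neutral wells and 100% = wells with inactivated enzyme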
Target sequence (P55789 whole entry, looked up): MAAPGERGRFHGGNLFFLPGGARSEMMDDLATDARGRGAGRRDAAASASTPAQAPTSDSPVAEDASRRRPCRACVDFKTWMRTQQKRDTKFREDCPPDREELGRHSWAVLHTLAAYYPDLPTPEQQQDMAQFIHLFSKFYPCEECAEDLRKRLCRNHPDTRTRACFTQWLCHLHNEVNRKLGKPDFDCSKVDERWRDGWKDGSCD
RanGTP-Imp inh = inhibitors of RanGTP-importin-beta interaction, primary screen, biochemical, FRET, CFP-Ran, YFP-importin-beta, homogeneous; Ran GTPase (GTP-bound) - importin-beta complex; cell-free CFP-Ran/YFP-importin-beta FRET ratio; inhibition, % (test concentration not listed); actives 1.1% (n = 300,000); AID 2216, 2009;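 active means most replicates above 15%; inconclusive means exactly half above 15%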;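 further: 0% = DMSO wells and 100% = Ran loaded with GDP instead of GTP; wells of about 40 µL received 100 nL stock; the first replicate is given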
Beta2AR agonist = beta2AR agonists driving receptor internalization, primary screen, cell-based, FAP fluorogen, flow cytometry; actives 0.43% (n = 340,000); Am2.2-beta2AR cells; reference of the scale not given here; Beta-2 adrenergic receptor (Homo sapiens), P07550; response, % (no concentration beside the values);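 active means response above a set limit, near 3 SD of response in nonfluorescent compounds, cut at about 42% in these data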;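 further: stock transfer was 100 nL into about 11 µL; a reference agonist was the positive control; negative values mostly stem from fluorescent compounds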
Target sequence (P07550 whole entry, looked up): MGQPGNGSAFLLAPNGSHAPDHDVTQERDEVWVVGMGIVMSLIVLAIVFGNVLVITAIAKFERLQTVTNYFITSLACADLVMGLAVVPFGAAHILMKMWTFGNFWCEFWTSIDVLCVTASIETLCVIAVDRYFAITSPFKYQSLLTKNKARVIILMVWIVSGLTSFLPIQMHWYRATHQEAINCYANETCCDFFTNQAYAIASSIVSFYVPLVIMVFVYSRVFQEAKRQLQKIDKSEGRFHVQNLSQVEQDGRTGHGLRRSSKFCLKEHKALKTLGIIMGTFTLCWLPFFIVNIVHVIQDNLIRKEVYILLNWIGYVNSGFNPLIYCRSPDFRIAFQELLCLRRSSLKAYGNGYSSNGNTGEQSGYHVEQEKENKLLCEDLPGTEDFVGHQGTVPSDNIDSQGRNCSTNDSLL
Vif TR-FRET = inhibitors of Vif binding to APOBEC3G peptide, primary screen, biochemical, TR-FRET, GST-Vif 1-94, biotin-A3G peptide, dose response retest (AID 1117319); TR-FRET GST-Vif / biotin-A3G peptide binding; higher % means a stronger effect; test concentration not given here; strong numbers were not always called active; one-dose inhibition, %; IC50 in µM for titrated hits; actives 0.57% (n = 260,000);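 active means above the screen mean plus three standard deviations and confirmed in dose response; inconclusive means results disagree or hit not tested in dose response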;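 further: Vif residues 1-94 fused to GST binding biotinylated APOBEC3G peptide 110-148; 0% = full assay without inhibitor and 100% = GST in place of GST-Vif; retest series ran down from 100 µM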
Active calls of the source: *; u = inconclusive; x = not tested or not shown; & = joins results of further samples. This is a random part of the collection. Share with any hit: about 6.3%.

SMILES	LANA-H2B inh	Calb FLC	HNF4A DNA FP	ALR H2O2 inh	RanGTP-Imp inh	Beta2AR agonist	Vif TR-FRET
Cc1cc(C)n(C(=O)C(C)N2C(=O)c3ccccc3C2=O)n1 (centres undefined)	-5.1	-4	1.0	-3	6.2	-4	23%
c1ccc(-c2ccn3nnnc3n2)cc1	-4.6	2	-0.8	-2	1.2	-9	-1%
Nn1c(SCC(=O)Nc2ccc3c(c2)OCO3)nnc1-c1ccccc1	-4.5	-21	-1.0	-6	-4.3	-6	2%
CC(C)Sc1cc(N2CCCC2)nc(-c2ccccc2Cl)n1	1.0	13	-0.5	3	5.4	6	0%
Cc1cc(=O)c2cc(NC(=O)c3ccccc3Cl)ccc2[nH]1	3.7	5	-1.1	-3	-0.4	-6	x
CCCNc1nc(N)nc(-c2cc(Cl)ccc2OC)n1	-5.2	-12	-2.6	-8	3.0	0	0%
CC1CCCN(S(=O)(=O)c2ccc(NC(=O)C3CCN(C(=O)C(C)(C)C)CC3)cc2)C1 (centres undefined)	4.1	x	-2.7	-7	x	8	-8%
Cn1c(=O)c2c(nc(NCCOc3ccc(F)cc3)n2C)n(C)c1=O	-2.7	2	-2.7	x	-0.1	15	8%
CS(=O)(=O)c1ccc(C(=O)CN2C(=O)NC3(CCCc4ccccc43)C2=O)cc1 (centres undefined)	17*	x	-1.5	-4	x	-2	-2%
CC(C)c1ccc(-n2c(-c3ccccc3)c[n+]3c2CCc2ccccc2-3)cc1	x	-29	1.3	x	7.3	-9	10%
CCCCCc1ccc(-c2cn(CN3C(=O)c4ccccc4C3=O)nn2)cc1	-2.0	-9	-1.2	-5	-2.6	-5	x
CCOC(=O)c1c(N2C(=O)CC(Sc3ccccc3C(=O)O)C2=O)sc(C)c1C (centres undefined)	2.1	-4	0.5	21	-0.4	-9	u
CC(C)(C)OC(=O)NCCc1nnc(S(=O)(=O)Cc2ccc(Cl)cc2Cl)o1	1.3	-13	-4.0	2	5.7	21	-8%&-16%
COc1cc(NC(=O)Cc2ccccc2)nc(OC)n1	2.2	0	1.9	-7	-0.4	0	-4%
COc1cc(C(=O)NCCC(=O)NC2CCCc3ccccc32)cc(OC)c1OC (centres undefined)	-2.0	-2	-1.1	-3	4.0	-1	x
Fc1ccc(CN2CCSCC2)cc1Br	-4.0	4	-4.2	-3	-1.3	8	2%
COc1ccc2c(c1OC)C(=O)N(c1cccc(C)c1)C2	1.3	16	-1.8	3	2.5	4	3%
COc1cc(NC(=O)c2ccc3c(c2)OCO3)ccc1NC(=O)c1ccco1	4.1	0	0.1	0	-0.9	-1	-5%
CCOc1ccc(NC(=O)N(CC(C)C)CC(C)C)cc1	0.1	-3	1.0	-3	-2.7	-6	-2%
Cc1ccc(CNC(=O)CSc2ncn[nH]2)cc1	2.6	-1	1.1	0	3.1	-1	x
COc1cccc(C(=O)CSc2nc3ccccc3n2CC(=O)N(C(C)C)C(C)C)c1	0.7	-3	1.3	-16	4.7	-2	-1%
CCOc1cc(S(=O)(=O)N2CC=C(c3ccc(F)cc3)CC2)c(OCC)cc1-n1cnnn1	-2.6	u	-2.6	42	3.1	6	1%
CCN1CCCC1Cn1cnc2c([nH]c3ccc(Cl)cc32)c1=O (centres undefined)	-1.1	-8	2.4	x	-2.5	5	-1%
Nc1nonc1-n1nnc(C(=O)N/N=C\c2cccc(Cl)c2)c1CN1CCOCC1	-5.9	-3	1.8	2	-2.7	3	x

Reprinted from the results shown (4 entries):
SMILES	LANA-H2B inh	Calb FLC	HNF4A DNA FP	ALR H2O2 inh	RanGTP-Imp inh	Beta2AR agonist	Vif TR-FRET
COc1cccc(C(=O)CSc2nc3ccccc3n2CC(=O)N(C(C)C)C(C)C)c1	0.7	-3	1.3	-16	4.7	-2	-1%
CCOc1cc(S(=O)(=O)N2CC=C(c3ccc(F)cc3)CC2)c(OCC)cc1-n1cnnn1	-2.6	u	-2.6	42	3.1	6	1%
CCN1CCCC1Cn1cnc2c([nH]c3ccc(Cl)cc32)c1=O (centres undefined)	-1.1	-8	2.4	x	-2.5	5	-1%
Nc1nonc1-n1nnc(C(=O)N/N=C\c2cccc(Cl)c2)c1CN1CCOCC1	-5.9	-3	1.8	2	-2.7	3	x

The results go on:
SMILES	LANA-H2B inh	Calb FLC	HNF4A DNA FP	ALR H2O2 inh	RanGTP-Imp inh	Beta2AR agonist	Vif TR-FRET
Cc1nc2ccccc2c(=O)n1/N=C/c1ccc(F)cc1	1.6	-2	-2.2	3	0.7	-3	0%
COc1ccc(C(=O)C2CCCN(Cc3cccc4c3OCO4)C2)cc1OC (centres undefined)	5.0	-2	0.6	6	-1.2	-4	15%
Cn1c(CNC(=O)C(C)(C)C)nc2ccccc21	2.1	-2	0.3	x	5.1	-5	-1%
Cc1onc(-c2ccccc2)c1C(=O)Nc1ccc(Br)cc1Cl	-5.2	-8	-4.9	4	7.2	3	5%
CN(C)C(=O)CCc1ccc2c3c([nH]c2c1)[C@]1(CCC2CCCC2)[C@@H](C(=O)N2CCOCC2)C[C@H](CC(=O)NC(C)(C)C)C(=O)N1CC3	x	x	0.1	x	x	-2	-2%
CCCc1nc2oc3ccccc3c(=O)c2c(=O)n1CCCOC	-4.0	-9	-0.4	-3	-0.1	-9	x
CCn1c(CC(=O)Nc2ccc(C)c(Cl)c2)nnc1SCC(=O)Nc1nc(C)cs1	1.2	-1	3.4	-3	4.3	-3	5%&-6%
CNc1nc(CC(C)=O)ns1	-7.6	4	0.9	1	1.6	4	1%
CCN(CC)CCCC(C)NC(=O)c1c(NC(=O)c2ccccc2)sc2c1CCCC2 (centres undefined)	3.6	2	4.6	x	-0.4	7	x
Cc1ccc(S(=O)(=O)N2CCC(C(=O)OCC(=O)N3CCCC(C)C3)CC2)cc1C (centres undefined)	-0.8	-5	2.3	0	x	14	4%
COc1cccc(NC(=O)C2CCN(S(=O)(=O)c3ccc4c(c3)C(C)(C)C(=O)N4C)CC2)c1	2.9	3	-4.8	2	4.8	3	x
O=C(Nc1ccc2snnc2c1)N1CCCCC1	-4.7	-32	0.4	u	2.3	1	x
CCNC(=O)NC1(C(=O)Nc2ccc3c(c2)OCCO3)CCCCC1	6.2	8	1.4	1	-1.9	-2	20%
CCSc1nc(N)c(NC(=O)c2ccc(Br)o2)c(=O)[nH]1	2.5	-9	1.6	6	-0.7	2	1%
CCN(CC)S(=O)(=O)c1ccc(N2CCOCC2)c(NC(=O)c2ccccc2)c1	x	-10	2.5	x	1.6	-20	x
COC(=O)c1ccc(CSc2nc3c(cnn3-c3ccc(C)cc3)c(=O)[nH]2)o1	-1.6	5	1.1	0	5.8	0	6%
Cc1cc(=O)[nH]c2[nH][nH]c(=O)c12	x	x	-2.2	x	x	9	-5%
COc1ccccc1CNC(=O)CN1C(=O)NC(Cc2ccccc2)(c2ccccc2)C1=O (centres undefined)	1.2	x	3.2	-4	x	-4	-2%
Cc1cccc(C)c1-n1c(C)cc(/C=C2\C(=O)NN(c3ccccc3)C2=O)c1C	-1.5	-24	-1.4	22	0.2	13	11%
O=C(CSc1nnc(-c2ccc(F)cc2)o1)NC1CCCC1	x	-15	-0.2	x	0.0	-7	x
CC1CCCCC1NC(=O)CN1C(=O)NC(C)(c2ccc(OC(F)F)cc2)C1=O (centres undefined)	8.9	-4	0.6	x	2.8	-1	1%
O=C(Cc1sc(Nc2ccccc2)nc1-c1ccccc1)NCc1ccccc1	1.8	14	1.6	11	-0.3	-4	x
S=C(NCc1cccnc1)Nc1cccc(Cl)c1	8.4	1	-0.3	-1	-2.2	-6	-2%
O=C(CCc1ccc(S(=O)(=O)NC2CCCCC2)cc1)NCc1ccccc1	x	-4	-2.0	x	-1.2	2	1%
CCn1cc(CN2CCN(CCC(C)C)C(CCO)C2)c2ccccc21 (centres undefined)	1.4	-9	4.7	0	1.3	-10	3%
COC(=O)c1sccc1NC(=O)C1C2C=CC(C2)C1C(=O)O (centres undefined)	-1.0	5	0.3	-3	4.1	-9	31%
COc1ccc(Cc2nnc(CCc3ccccc3)s2)cc1	3.2	7	-0.1	-32	-0.8	-1	4%
C/C=C/c1ccc(OCC(=O)O)c(OC)c1	5.1	1	-1.8	-8	3.7	-10	x
Cc1nc2scc(C)n2c(=O)c1S(=O)(=O)N1CCN(c2cccc(C(F)(F)F)c2)CC1	-0.2	-8	1.8	x	2.0	-5	x
Cc1ccccc1NC(=O)C(C#N)Cc1cccnc1 (centres undefined)	-0.2	-8	0.8	24	3.3	5	u
Cc1nn2c3ccccc3n(Cc3ccccc3)c2nc1=O	-2.0	17	-4.0	1	-0.3	-32	u
Cc1sc2ncnc(N3CCC(C(=O)Nc4nc(-c5ccc(F)cc5)cs4)CC3)c2c1C	-1.1	-2	0.0	x	7.4	2	-2%
CN(Cc1cc2ccccc2[nH]c1=O)C(=O)C1CCCCC1	0.0	-2	0.8	-6	3.2	2	-5%
CCc1nc(CN2CCN(c3cc(C(F)(F)F)ccn3)CC2)c(C)[nH]1	2.2	8	-2.9	3	3.4	-8	14%
O=S1(=O)CCN(Cc2ccc(Cl)c(Cl)c2)CC1	-5.5	7	2.3	x	-1.2	-5	-7%
O=C(CN1C(=O)NC(Cc2c[nH]c3ccccc23)C1=O)Nc1ccc(F)c(F)c1F (centres undefined)	-0.1	x	1.6	-3	x	5	18%
COc1cccc(OC)c1OCCCN1CCC(Cc2ccccc2)CC1	-0.9	-4	-3.4	-54	-3.6	-4	x
O=S(=O)(NN1CCOCC1)c1cc(Cl)cc(Cl)c1O	3.2	-2	1.9	40	-0.8	-1	-2%
O=C(NC(=S)N1CCN(c2ccc(F)cc2)CC1)C12CC3CC(CC(C3)C1)C2	4.4	1	-1.3	-2	-3.0	4	4%
CCOC(=O)N1CCN(C(=O)CSc2nc3c([nH]c4ccccc43)c(=O)n2C)CC1	2.2	-1	1.4	x	1.3	-4	u
O=C1C2CC=CCC2C(=O)N1c1ccc(N2CCN(c3ccccn3)CC2)c([N+](=O)[O-])c1 (centres undefined)	7.0	1	0.7	-20	-0.7	-6	11%
O=C(CN(Cc1ccco1)C(=O)CNS(=O)(=O)c1ccc(Cl)cc1)NCc1ccc(F)cc1	1.3	7	2.2	0	-0.3	-4	3%
Oc1c(C(Nc2cccc(C(F)(F)F)c2)c2cccnc2)ccc2cccnc12 (centres undefined)	-0.1	96*	-3.6	5	-2.3	17	x
COC(=O)[C@H](CCSC)NC(=O)Nc1ccc(C)cc1C	0.9	-10	-4.0	-4	-2.9	-3	-5%
Cc1nn(Cc2ccc(Cl)cc2)c(C)c1NC(=O)c1cc(-c2ccc3c(c2)OCO3)on1	-5.1	-7	1.3	-5	5.7	9	71%
CC1(C)NC(=O)N(CC(=O)Nc2cc(C(F)(F)F)cc(C(F)(F)F)c2)C1=O	4.2	0	5.2	-1	4.6	-3	x
COc1ccc(Cl)cc1NS(=O)(=O)c1c(C)[nH]c(C)c1C(=O)N1CCCCC1	6.3	-1	-1.6	-6	0.7	4	3%
CN1CCN(CCCCOc2cccc3ccccc23)CC1	-5.3	-21	-2.0	-20	-6.5	3	0%
CCOc1ccc(C(C)NC(=S)NC2CCCCC2)cc1OCC (centres undefined)	1.1	-3	0.1	-3	3.4	1	-2%
Cc1[nH]n(-c2ccccc2)c(=O)c1N=Nc1ccccc1C(=O)O	-14	42	-1.4	15	-0.7	10	x
CCC1=[N+](CC(=O)c2ccc(C)cc2)CCn2cccc21	-1.8	1	-5.6	8	-3.8	2	u
CNC(=O)NC(=O)C(C)Oc1ccccc1F (centres undefined)	-3.2	-4	-1.5	x	-1.6	-1	3%
